Vaccinia mCherry – vaccinia inhibition (mCherry reporter). Vaccinia virus mCherry reporter infection, fluorescence; about a quarter of the inactives have no number. Potency, µM (titrated, usually from 36.5 µM), for inactives: at the top dose activity change, negative = inhibition, hits mostly inhibitors. actives 0.63% (n = 310,000). AID 720579; active = well fitted inhibition curve with a large enough effect; inconclusive = small, poorly fitted or top-dose-only effect; inactive = no such curve, though single readings can be large or run the other way; tested in A549 cells; further: nearly all actives have a fitted effect of over 35% in size; inactives centre near -10
VACV Venus inh – inhibitors of vaccinia virus (Venus reporter); Vaccinia virus Venus reporter expression, fluorescence; Potency, µM (series often up to 36.5 µM), for inactives: at the highest dose activity change, negative = inhibition, most hits filed as inhibitors; actives 0.46% (n = 330,000); AID 720580; active means well fitted inhibition curve with a large enough effect; inconclusive means small, poorly fitted or top-dose-only effect; inactive means no such curve, though single readings can be large or run the other way; tested in A549 cells; further: nearly all actives have a fitted effect of over 30% in size; inactives centre near -10
* marks the source's active call; other numbers are inactive results; i = inactive; ? = inconclusive; / = not tested or not shown; [ ] = another dose, or the depositor's remark. On the % scale 0 is the no-effect control and ±100 the full control effect; potency means the concentration at half of the fitted maximal effect.

Compound,Vaccinia mCherry,VACV Venus inh
Cc1nc2ccccc2n1CC(=O)OCC(=O)NC1CC1,6.2%,-2.3%
O=C(COC(=O)CCCN1C(=O)c2cccc3cccc(c23)C1=O)Nc1cccc(Br)c1,-9.4%,-5.1%
CCOC(=O)C(C)On1c(-c2ccccc2)nc2ccc([N+](=O)[O-])cc21 (centres undefined),/,-11.5%
COc1ccc(CN2CCOCC2)c(C)c1C,i,-6.2%
COc1cc(OC)c(NS(=O)(=O)c2cc3c(cc2C)NC(=O)CO3)cc1Cl,-6.5%,-11.5%
CC(CCN1CC1)=NNC(=O)Nc1cccc2ccccc12,?,?
O=C(CN1C(=O)NC2(CCCC2)C1=O)N1CCN(c2ccccc2Cl)CC1,-1.6%,-14.8%
CC(C)Cc1nnc(NC(=O)CCC(=O)NC2CCCc3ccccc32)s1 (centres undefined),-0.6%,-8.9%
Cc1oc2ccc(O)c(CN3CCOCC3)c2c1C(=O)Nc1ccccc1,-9.6%,4.0%
COc1ccc(N2CCN(C(CNC(=O)C(C)(C)C)c3ccco3)CC2)cc1 (centres undefined),-10.2%,-6.2%
CSCCC(c1nc2ccccc2[nH]1)n1c(C)nc2ccccc21 (centres undefined),7.2%,-2.5%
CC1=NN(C(=O)Cn2ccc([N+](=O)[O-])n2)C(O)(C(F)(F)F)C1 (centres undefined),-11.2%,-3.1%
CCCn1ccc2c(OCC(=O)Nc3cc(C)ccc3C)cccc2c1=O,-4.7%,-10.1%
Cc1ccc(Cl)cc1-n1ncc2c(NCCCn3ccnc3)ncnc21,-11.7%,-2.0%
CCCNC(=O)C1(C)CCCN(Cc2ccsc2)C1 (centres undefined),32.5%[activator],12.8%
CCOC(=O)C1CCCN(C(=O)C2CCC(CNS(=O)(=O)c3ccc(NC(C)=O)cc3)CC2)C1 (centres undefined),0.2%,-1.9%
CN(C)S(=O)(=O)c1cccc(CSc2cccc[n+]2[O-])c1,-11.8%,-12.7%
CCOC(=O)CC1C(=O)NCCN1c1nc2c(C)cccn2c(=O)c1/C=C1\SC(=S)N(C(C)CC)C1=O (centres undefined),i,214.2%[activator]
COc1ccc(-c2cc(C(F)(F)F)nc(SCC(=O)NCc3ccc(F)cc3)n2)cc1,-20.6%,-14.0%
S=C(Nc1ccccc1Cl)N1CCC(c2ccccc2)C1 (centres undefined),10.1%,-3.5%
N#CC1C(C#N)N2CCCN2C1c1ccc(Br)cc1 (centres undefined),-17.6%,-7.8%
Cc1ccccc1CN1C(=O)c2ccccc2S(=O)c2ccc(C(=O)N3CCOCC3)cc21 (centres undefined),15.0%,5.0%
O=C(c1noc2c1CCCC2)N1CCC(CO)(Cc2ccccc2Cl)CC1,-9.1%,-8.0%
Cc1ccc(CCNC(=O)c2cn(C)c3ccc(S(=O)(=O)N4CCCCC4)cc3c2=O)cc1,?,-20.2%
CCN(CC)c1cc(C)c(/C=C/c2ccnc3ccccc23)cc1C,-15.5%,2.4%
O=C(O)COc1cccc(/C=C2/SC(=S)N(Cc3ccccc3)C2=O)c1,-8.8%,-3.1%
CC1(C)Cc2ccccc2-c2n[nH]c(=S)n21,-22.3%,-18.5%
O=C(CCC(=O)Nc1ccc(F)cc1)N/N=C/c1ccc(O)cc1O,?,-29.8%
CCOC(=O)c1c(C)[nH]c(C(=O)OCC(=O)Nc2ccc(Cl)cn2)c1C,-4.6%,-23.3%
COC(=O)C(c1ccccc1)C(CC(=O)c1ccccc1)c1ccccc1 (centres undefined),-14.6%,-0.9%
CCS(=O)(=O)Nc1ccc(C(=O)NCCSc2ccccc2)cc1,i,-9.3%
Cn1ccc2c(-c3ccc(C(=O)O)cc3)cc3c(c21)C1CCC3C1 (centres undefined),18.2%,9.2%
COc1ccc2nc(C)cc(Nc3ccc(N4CCOCC4)cc3)c2c1,-2.3%,-25.5%
Cc1ccccc1OCC(O)CN1CCN(CC(O)COc2ccccc2C)C(C)C1 (centres undefined),-5.3%,-24.0%
CC(C)c1ccccc1NC(=O)Cn1cnc2c1c(=O)n(C)c(=O)n2C,-5.5%,-2.2%
CSCCC(NS(=O)(=O)c1ccccc1F)C(=O)NCc1ccncc1 (centres undefined),-19.5%,-11.9%
CC(=O)N1c2ccc(S(=O)(=O)NCCC(=O)Nc3ccc(C)c(Cl)c3)cc2CC1C (centres undefined),-3.4%,-16.8%
CC(=O)Nc1cccc(-c2ccnc3c2CC(C)(C(=O)Nc2cccc(Oc4ccccc4)c2)O3)c1 (centres undefined),-28.1%,?
Cc1ccc(-c2nc3c4ccccc4ccn3c2Cc2cccc(Cl)c2)cc1,i,-0.3%
Clc1ccc(-c2cnc3cccnn23)cc1,i,-4.8%
Cc1ccc(OCCN2CCN(C(=O)CCC(=O)Nc3nnc(C)s3)CC2)cc1,-14.5%,-5.2%
Cc1ccc(OCC(=O)Nc2ccc(S(=O)(=O)NC3=NCCCCC3)cc2)cc1,i,-5.9%
CCC(C)NC(=O)c1[nH]c2cc(C)ccc2c1Sc1ccc(Cl)cc1 (centres undefined),-13.2%,-12.0%
O=[N+]([O-])c1nn(-c2ccc(Cl)cc2)n(O)c1=NCc1cccnc1,i,-14.4%
Cc1cccc(NC(=O)Nc2cc(C)on2)c1,-1.0%,?
COc1ccc(-n2nnnc2CNC(=O)c2ccc3c(c2)OCO3)cc1,-5.9%,-15.5%
Cc1ccc2c(c1)C=CC(C)N2C(=O)c1ccccc1 (centres undefined),/,-9.1%
CN(C)/C=N/c1c(C#N)cnn1-c1nc2ccccc2s1,/,-13.0%
O=C(O)c1ccc(CNC(=O)C2CCN(S(=O)(=O)c3cccs3)CC2)cc1,-15.2%,-7.9%
COc1cccc(/C=C/C(=O)c2cccc([N+](=O)[O-])c2)c1,-6.2%,-12.0%
COC(=O)c1ccc(C(NC(=O)OCc2ccccc2)/C(C)=C/[C@@H](C)C(=O)NCc2ccc(-c3ccccc3)cc2)cc1 (some centres undefined),-29.3%,-8.7%
COc1cccc(OCc2cc(/C=N/NC(=O)c3ccn[nH]3)ccc2OC)c1,i,-26.6%
O=C(Nc1cccnc1)C1CCCN(S(=O)(=O)c2cccc3nsnc23)C1 (centres undefined),-8.0%,-20.3%
O=S1(=O)CC(N2CCN(CC3CC3)CC2)CN1Cc1ccccc1 (centres undefined),5.3%,1.5%
Cc1ccc(S(=O)(=O)N2CCOCC2)cc1NC(=O)COC(=O)C1COc2ccccc2O1 (centres undefined),-15.4%,-18.2%
CC(C)(C)CC(C)(C)NC(=S)Nc1ccc(S(=O)(=O)N2CCOCC2)cc1,?,-29.4%
Cc1cc(=O)[nH]c(SCCOc2cccc(C(F)(F)F)c2)n1,-2.0%,-9.5%
O=C(Nc1ccc(Oc2cccnc2)cc1)C1CCN(Cc2ccccc2F)CC1,-4.6%,-20.4%
CC(=O)O[C@H]1CC[C@@]2(C)C(=CC[C@H]3[C@@H]4CC[C@H](C5(C)OCCO5)[C@@]4(C)CC[C@@H]32)C1,-5.4%,-18.5%
CCOc1cc(CNC(=O)C2COc3ccccc3C2)cc(OCC)c1OCC (centres undefined),-11.5%,-7.8%[7.34 µM]

Next section:
Values run as follows: Vaccinia mCherry	VACV Venus inh
> CCOc1ccc(OCC)c(N=c2oc3c(C)ncc(CO)c3cc2C(N)=O)c1
→ -3.6%	2.8%
> CCC1C(=O)C(CC)C(c2ccccc2)NC1c1ccccc1 (centres undefined)
→ i	-4.2%
> COC(=O)c1cc2nc(-c3ccccc3)cc(C(F)(F)F)n2n1
→ -14.3%	-6.3%
> CCC(=O)Nc1ccccc1-c1nc2ccccc2n(C(C)C(=O)Nc2ccc(OC)cc2)c1=O (centres undefined)
→ -1.3%	-2.6%
> COc1ccc2[nH]c3c(C)c4cc[n+](C)cc4c(C)c3c2c1
→ 11.2µM*	?
> O=C(OCn1cncn1)c1ccc(Cl)cc1Cl
→ -9.9%	-5.2%
> O=C(O)COc1ccc(OCCNC[C@H](O)COc2ccccc2)cc1
→ -10.8%	-3.3%
> O=C(Cc1ccc(Cl)cc1)Nc1ccc(-c2nnc(-c3ccco3)o2)cc1
→ -26.7%	?
> CC(C)C[C@H](NC(=O)c1nc[nH]c1C(=O)NC1CCN(C(=O)OC(C)(C)C)CC1)C(=O)OCc1ccccc1
→ -5.9%	-17.6%
> Cc1nn(C(C)C(=O)N2CCN(c3ccccn3)CC2)c(=O)c2cc3occc3n12 (centres undefined)
→ -17.1%	-2.9%
> COc1ccc(CC(=O)NNS(=O)(=O)c2ccc3ccccc3c2)cc1OC
→ -20.7%	-9.4%
> CN1OC[C@@H]2CN(C(=O)c3cccnc3)[C@H](c3ccc(N4CCCCC4)cc3)C[C@@H]21
→ 26.3%	1.9%
> C/C(=N/NC(=O)C1CC1(c1ccccc1)c1ccccc1)c1cccs1 (centres undefined)
→ -3.0%	-13.7%
> CC(c1nnc(SCC(=O)N2CCc3ccccc32)n1-c1ccc(Cl)cc1)N(C)C (centres undefined)
→ -21.2%	-5.2%
> CN(CC(=O)Nc1ccc(Cl)c(C(F)(F)F)c1)C(=O)CCN1C(=O)C2CCCCC2C1=O (centres undefined)
→ ?	-17.4%
> Cc1ccc(-n2nc3c(c2NC(=O)c2ccccc2Br)CS(=O)C3)cc1 (centres undefined)
→ -18.4%	-11.8%
> Cn1nc(C(F)(F)F)c2cc(C(=O)Nc3ccc(F)c(Cl)c3)sc21
→ -15.2%	-7.6%
> COCCn1c(SCC(=O)Nc2ccc(N3CCOCC3)cc2)nc2ccccc21
→ -13.9%	-4.9%
> CCOc1ccccc1CNC(=O)CCN1C(=O)COc2ccccc21
→ -19.4%	-2.7%
> Cc1cccc2sc(NC(=O)C3CCCO3)nc12 (centres undefined)
→ -1.4%	-11.5%
> COC(=O)c1ccccc1NC(=O)c1ccccc1N(C)S(C)(=O)=O
→ /	-5.7%
> O=C(O)C1CC(=O)N(c2ccc3c(c2)OCCO3)C1 (centres undefined)
→ -9.1%	-6.9%
> O=S1(=O)CC(N2CCN(CCO)CC2)CN1Cc1cn(Cc2ccc(C(F)(F)F)cc2)nn1 (centres undefined)
→ -6.0%	-0.4%
> CCCNC(=O)c1nn2c(C(F)(F)F)cc(-c3ccccc3)nc2c1Cl
→ i	-13.8%
> Cc1ccc(Cl)cc1NC(=S)N(CCN(C)C)C(C)c1ccccn1 (centres undefined)
→ ?	-16.4%
> C#Cc1ccc([C@H]2C=C(C(=O)N3CCN(Cc4ccc5c(c4)OCO5)CC3)O[C@@H](OCc3ccc(CO)cc3)C2)cc1
→ ?	-12.5%
> CCC(c1nnnn1Cc1ccco1)N1CCN(c2cc(Cl)ccc2C)CC1 (centres undefined)
→ ?	-29.7%
> CCCc1ccc(OCc2ccc(C(=O)N/N=C/c3cccc([N+](=O)[O-])c3)o2)c(OC)c1
→ ?	7.08µM*
> COc1ccc(Nc2cc(C)nc3ncnn23)cc1
→ -2.7%	-7.9%
> COc1ccc(S(=O)(=O)N(CC(=O)N2CCN(C)CC2)c2ccc(C)cc2)cc1OC
→ -18.9%	-13.7%
> CC(=O)Cc1c(C(=O)O)c(C)nn1-c1ccccc1
→ -6.4%	4.6%
> CCOC(=O)C1CCN(C(=O)Cc2cccs2)CC1
→ -17.3%	-8.4%
> O=C(O)Cc1ccc(S(=O)(=O)Nc2ccccc2C(=O)O)cc1
→ -13.7%	-3.2%
> COc1ccc(C(C(=O)NC2CCCCC2)N(C(=O)CCl)c2cccc(Cl)c2)cc1 (centres undefined)
→ ?	?
> CCc1nc2c(OCC(=O)C(C)(C)C)cccn2c1N(C)C(=O)c1ccco1
→ 7.4%	2.4%
> CCOC(=O)c1ccc(NC(=O)c2c(NCc3cccs3)sc3c2CCCC3)cc1
→ -14.6%	-6.1%
> Cc1c(CCO)c(=O)[nH]n1S(=O)(=O)c1ccc(Cl)cc1Cl
→ i	-14.8%
> CSc1ccc(Cn2nnc(C(=O)Nc3ccc(C)cc3Cl)c2N)cc1
→ -16.3%	-29.8%
> Cc1nc(NCCCn2ccnc2)c2ccccc2n1
→ -14.0%	-9.8%
> CCOc1ccc(S(=O)(=O)NCCc2sc(-c3ccc(C)cc3)nc2C)cc1
→ -21.7%[7.34 µM]	-11.6%[7.34 µM]
> Nc1n[nH]c(N)c1N=Nc1ccc2c(c1)OCO2
→ ?	?

Compound activity (PubChem BioAssay)
